# Source: PubChem
# KCNQ2 block: KCNQ2 potassium channel inhibitors, primary screen, cell-based, CHO-K1, FluxOR thallium flux, B-score (AID 2156) | Potassium voltage-gated channel subfamily KQT member 2 (Rattus norvegicus), O88943 | 20 min; active compounds read low; only compounds with negative scores are shown here; some inactives read as strong as hits | B-score at 10 µM | 1.1% of 310,000 active;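 active = fluorescence ratio B-score at most minus 3 library SDs, with starting brightness B-score within 2 library SDs, cut at about -5.5 in these data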
# Target sequence (O88943 whole entry, looked up): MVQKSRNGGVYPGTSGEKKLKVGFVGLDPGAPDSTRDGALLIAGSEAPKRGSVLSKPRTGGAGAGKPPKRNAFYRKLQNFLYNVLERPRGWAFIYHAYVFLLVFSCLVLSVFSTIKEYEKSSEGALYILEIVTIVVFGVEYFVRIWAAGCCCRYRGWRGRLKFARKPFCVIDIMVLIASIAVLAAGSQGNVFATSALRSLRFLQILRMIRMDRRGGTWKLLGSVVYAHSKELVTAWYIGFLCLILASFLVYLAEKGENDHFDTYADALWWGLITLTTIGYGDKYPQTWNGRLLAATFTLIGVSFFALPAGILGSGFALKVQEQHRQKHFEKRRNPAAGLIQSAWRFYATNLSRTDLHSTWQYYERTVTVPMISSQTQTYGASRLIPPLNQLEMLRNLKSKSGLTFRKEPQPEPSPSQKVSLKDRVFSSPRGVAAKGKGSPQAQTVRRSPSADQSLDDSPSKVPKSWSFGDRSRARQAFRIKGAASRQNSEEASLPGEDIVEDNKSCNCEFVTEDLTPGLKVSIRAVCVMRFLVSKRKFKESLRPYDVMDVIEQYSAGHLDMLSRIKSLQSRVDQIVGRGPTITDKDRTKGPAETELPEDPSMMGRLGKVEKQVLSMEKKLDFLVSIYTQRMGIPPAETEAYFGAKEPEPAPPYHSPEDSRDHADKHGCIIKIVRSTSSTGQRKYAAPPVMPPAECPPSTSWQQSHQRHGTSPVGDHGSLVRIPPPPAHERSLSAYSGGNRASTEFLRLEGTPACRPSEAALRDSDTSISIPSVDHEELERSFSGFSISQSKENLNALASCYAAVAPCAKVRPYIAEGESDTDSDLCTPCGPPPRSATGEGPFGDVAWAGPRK
# KCNQ2 block baseline: recorded beside KCNQ2 block, whose call it bears; B-score; measured here: initial fluorescence intensity artifact check;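 brightness before thallium and not channel activity; 0 = typical well and far values either way flag optical interference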
# * marks the source's active call; other numbers are inactive results; i = inactive. This is a subset; the hit share may differ from the screen's.
KCNQ2 block,KCNQ2 block baseline,molecule
i,-0.43,COc1ccc(/C=N\NC(=O)c2ccccc2Br)cc1COc1c(F)c(F)cc(F)c1F
i,-0.32,Cc1ccc2c(c1)N1C(=O)c3ccccc3C1C1=C(CC(C)(C)CC1=O)N2 (stereo not drawn)
i,0.75,COc1ccc(C(=O)N2CCNC(=O)C2CC(=O)Nc2ccc(C)cc2)cc1 (stereo not drawn)
i,0.06,O=C(O)C1CCCCC1C(=O)Nc1cc(C(F)(F)F)ccc1Cl (stereo not drawn)
i,-0.5,CN1CCN(S(=O)(=O)c2ccc(NC(=O)c3ccccc3Cl)cc2)CC1
i,0.05,O=S(=O)(c1cnc(Cl)c(Cl)c1)N1CCc2ccccc21
i,-0.02,O=C(NCc1ccccn1)c1cc2c(ccc3ccccc32)oc1=O
i,2.91,COc1cccc(CN2CC(C(=O)NCCCn3cccn3)CCC2=O)c1 (stereo not drawn)
i,0.26,Cc1c(C(=O)N2CCCc3ccccc32)oc2ccccc12
i,-0.07,CC1CCCCC1NS(=O)(=O)c1ccc2c(c1)CC(=O)N2C (stereo not drawn)
i,0.11,COc1ccc(C(=O)NCC(C)NC(=O)c2ccc(OC)cc2)cc1 (stereo not drawn)
i,0.05,O=c1cc(-c2ccccc2)nc2nc(CCc3ccccc3)[nH]n12
i,-0.06,Clc1ccc(-c2ccc(C=Nc3ccc(N4CCOCC4)cc3)o2)cc1
i,0.89,CC12CN3CC(C)(CN(C1)C3c1c[nH]c3ccccc13)C2=O (stereo not drawn)
i,0.65,N#C/C(=C\c1cn[nH]c1-c1ccccc1)C(=O)NC1CCCCCC1
i,1.7,CC(=O)c1sc2nc(-c3ccc(C)cc3)c3c(c2c1N)CCCC3

# Some of the entries so far, with two lines to a compound:
# Each structure is followed by: KCNQ2 block | KCNQ2 block baseline
- Cc1c(C(=O)N2CCCc3ccccc32)oc2ccccc12
  i | 0.26
- O=c1cc(-c2ccccc2)nc2nc(CCc3ccccc3)[nH]n12
  i | 0.05
- CC1CCCCC1NS(=O)(=O)c1ccc2c(c1)CC(=O)N2C (stereo not drawn)
  i | -0.07
- CC12CN3CC(C)(CN(C1)C3c1c[nH]c3ccccc13)C2=O (stereo not drawn)
  i | 0.89
- COc1ccc(C(=O)NCC(C)NC(=O)c2ccc(OC)cc2)cc1 (stereo not drawn)
  i | 0.11
- N#C/C(=C\c1cn[nH]c1-c1ccccc1)C(=O)NC1CCCCCC1
  i | 0.65
- Clc1ccc(-c2ccc(C=Nc3ccc(N4CCOCC4)cc3)o2)cc1
  i | -0.06

# Additional results follow.
KCNQ2 block,KCNQ2 block baseline,molecule
i,0.14,O=C(Nc1ccc(O)c(-c2nc3ccccc3s2)c1)c1cccs1
i,0.04,CCn1c(CC(=O)Nc2ccccc2C)nnc1SCC(=O)NC1=NCCS1
i,-1.4,O=C(NNS(=O)(=O)c1ccc(Br)cc1)c1ccncc1
i,-0.03,CC(C)[C@H](NC(=O)N1CCn2c1nc1ccccc12)C(=O)NCC1CCCO1 (stereo partly drawn)
i,-0.14,O=C(O)/C=C/C(=O)Nc1ccc(Cl)cc1C(=O)c1ccccc1
i,0.69,O=[N+]([O-])c1ccccc1OCCCn1cnc2ccccc21
i,-0.79,C=CCOc1cccc(/C=N/NC(=O)C(=O)NCc2ccco2)c1
i,-0.02,C/C(=N\OC(=O)NC(C)C)c1sc(-c2ccc(Cl)cc2)nc1C
i,-0.29,Cc1cc2ncn(-c3ncnc4sc5c(c34)CCCC5)c2cc1C
i,0.5,CC(C(=O)Nc1ncn[nH]1)N1C(=O)c2ccccc2C1=O (stereo not drawn)
i,-0.93,Cc1ccc(NC(=O)Cc2c(C(=O)O)n(C)c3ccccc23)cc1F
i,-3.32,O=C(/C=C/c1ccccc1[N+](=O)[O-])N1CCOCC1
i,-0.33,O=C(Nc1ccccc1Cl)NC1(C(=O)N2CCCCC2)CCCCC1
i,-0.13,COc1cccc(C(=O)Nc2ccc(S(=O)(=O)N3CCN(C)CC3)cc2)c1
i,2.64,Cc1cccc(N(C)C(=O)c2cnn(-c3ccccc3)c2C)c1
i,-0.03,Cc1cccc(NC(NC(=O)c2ccccc2[N+](=O)[O-])C(Cl)(Cl)Cl)c1 (stereo not drawn)

# Whole records, looked up by structure. Order of values: KCNQ2 block, KCNQ2 block baseline
# Entry for O=C(Nc1ccccc1Cl)NC1(C(=O)N2CCCCC2)CCCCC1 → i, -0.33
# Entry for COc1cccc(C(=O)Nc2ccc(S(=O)(=O)N3CCN(C)CC3)cc2)c1 → i, -0.13
# Entry for Cc1cccc(NC(NC(=O)c2ccccc2[N+](=O)[O-])C(Cl)(Cl)Cl)c1 (stereo not drawn) → i, -0.03
# Entry for O=C(/C=C/c1ccccc1[N+](=O)[O-])N1CCOCC1 → i, -3.32
# Entry for Cc1cccc(N(C)C(=O)c2cnn(-c3ccccc3)c2C)c1 → i, 2.64

# Following part
KCNQ2 block,KCNQ2 block baseline,molecule
i,2.25,Cc1cnn(C(=O)c2ccccc2Br)c1
i,-0.78,CC1=C(C(=O)Nc2ccccc2)C(c2ccncc2)C(C#N)=C(SCC(=O)Nc2ccccc2)N1 (stereo not drawn)
i,-0.62,COc1ccc(S(=O)(=O)N2CCCC(C(=O)N3CCN(C)CC3)C2)cc1C (stereo not drawn)
i,0.2,COc1ccc(OC)c(C(C)NC=O)c1 (stereo not drawn)
i,-0.09,Cc1ccc(CN2CCN(Cc3cnc(N4CCOCC4)s3)CC2CCO)cc1 (stereo not drawn)
i,-0.89,CCOC(=O)CC1COCCN1C(=O)c1cc(COc2ccc(F)c(F)c2)on1 (stereo not drawn)
i,-0.64,CC(=O)c1ccc(CC2SC(N)=NC2=O)cc1 (stereo not drawn)
i,0.08,Cn1cc(-c2ccccc2C(=O)O)c(=O)c2cc(Cl)ccc21
i,-0.37,CN1CCN(CC(=O)n2c3c(c4ccccc42)CCCC3)CC1
i,1.91,Cc1nnc(SCC(=O)Nc2ccc(Oc3ccccc3)cc2)n1N
i,0.48,CC(C)(O)C#Cc1ccc(CN2CCC(CO)(CCc3ccccc3)CC2)cc1
i,2.48,Cc1nc2ccccn2c1C(=O)N/N=C/c1ccc([N+](=O)[O-])cc1
i,-0.67,CCO[C@@H]1OC(C(=O)O)=C[C@H](c2ccc3c(c2)OCO3)[C@H]1CCCO
i,1.54,Cc1cc(C)c(C#N)c(Nc2cccc(C)c2C)n1
i,-0.73,CCCCNC(=O)CSc1nc2cc(OC)c(OC)cc2c(=O)n1Cc1ccc(OC)cc1
i,-2.12,O=C(CSc1nc(C2CC2)nc2sc3c(c12)CCCC3)NCc1ccco1
i,-2.04,Clc1ccc(-c2nc(Cc3ccccc3)no2)cc1
i,0.29,COc1ccc(-c2oc(NC(=O)c3ccc(C)cc3)c(C#N)c2-c2ccc(OC)cc2)cc1
i,-0.04,O=C(Nc1ccc(N2CCN(C(=O)c3ccco3)CC2)cc1)c1cccnc1Cl
i,0.01,Nc1c(C(=O)NCCN2CCOCC2)c2nc3ccccc3nc2n1-c1ccccc1
i,0.23,O=S(=O)(NCCc1ccccc1)c1ccc(S(=O)(=O)N2CCCCC2)cc1
i,-1.23,COc1ccc(C2c3c(ncn(CCCO)c3=N)Oc3ccc4ccccc4c32)cc1OC (stereo not drawn)
i,1.33,CCOC(=O)C1CCN(c2ncnc3c2c(-c2ccccc2)cn3-c2ccccc2)CC1
i,1.27,c1ccc(SCCN2CCN(c3ccccc3)CC2)cc1
i,-0.58,Cc1[nH]c(=O)[nH]c(=O)c1S(=O)(=O)N1CCN(c2ccccc2)CC1
i,0.3,CC(=O)Nc1ccc(NC(=O)C(C)OC(=O)C(C)SCC(=O)Nc2ccc(C)cc2)cc1 (stereo not drawn)
i,-2.01,CC(/C=N/NC(=O)c1ccc(CN2c3cccc4cccc(c34)S2(=O)=O)cc1)c1ccccc1 (stereo not drawn)
i,0.13,Cc1ccc(C(=O)N2CCN(S(=O)(=O)N3CCOCC3)CC2)cc1
i,-0.37,Cc1ccc2c(c1C)OC(=O)CC2(C)C
i,0.01,COc1ccccc1OCC(=O)NCCCn1ccnc1
i,1.94,CCN(CC)C(=O)CN(c1cccc([N+](=O)[O-])c1)S(=O)(=O)c1ccccc1
i,-0.7,O=C(Oc1ccccc1)c1ccc(-n2cnnn2)cc1
i,-0.01,CCc1nc(SCC(=O)N2CCc3cc(OC)c(OC)cc3C2)c(C#N)cc1C
i,1.66,NC1=NC[C@H](c2ccccc2)N1CCc1cccc(F)c1
i,0.61,CN1CCN(c2ccc(CNS(=O)(=O)c3ccc(F)cc3Cl)cc2)CC1
i,-0.13,Cc1cc(C(=O)N2CCN(C(=O)c3ccco3)CC2)ccc1[N+](=O)[O-]
i,3.31,COc1cc(C(=O)N/C(=C\c2cn(C)c3ccccc23)C(=O)NCCCn2ccnc2)cc(OC)c1OC
i,0.81,O=C(CSc1nnc(SCc2ccccc2)s1)NNC(=S)Nc1ccccc1
i,3.87,CCCCn1c(N)c(N(CCOC)C(=O)CSc2nnc(C)n2-c2ccc(OC)cc2)c(=O)[nH]c1=O
i,1.94,COc1ccc(-n2c(C)nc3cc(C(=O)O)ccc32)cc1
i,1.46,CCOC(=O)c1ccccc1NC(=O)c1ccc2nccnc2c1
i,0.65,CCCNC(=O)c1cc(S(=O)(=O)N2CCCCC2)c[nH]1
i,-0.86,CC1(C)C(c2ccccn2)=[N+]([O-])C(C)(C)N1O
i,0.88,C=CCN1C(c2cccc(C(F)(F)F)c2)=CS/C1=C(/C#N)c1nnc(N2CCOCC2)n1-c1ccccc1
i,0.47,CCn1c2ccccc2c2cc(/C=N/NC(=O)c3ccccc3)ccc21
i,0.31,CCN(CC)C(=O)COc1ccc(/C(C)=N/NC(=O)c2ccccc2Br)cc1
i,0.6,Cc1n[nH]c(C)c1C(=O)CC1(O)C(=O)N(CCc2ccccc2)c2ccc(Br)cc21 (stereo not drawn)
i,0.63,Cc1ccccc1NC(=O)Cc1nnc(SCC(=O)NC2=NCCS2)n1C
i,-1.3,COc1ccc(C2N=C(c3ccccc3)NO2)cc1OC (stereo not drawn)
i,-0.3,COc1ccc(CCNC(=O)c2c(O)c3ccccc3n(C)c2=O)cc1
i,0.22,COc1ccc(-c2n[nH]c(=S)n2/N=C/C=C\c2ccccc2OC)cc1
i,-0.69,O=C(CCSc1ccc(Cl)cc1)NN=C1CCCCCC1
i,0.92,COCC(=O)N(c1ccccc1)C(C)C(=O)OC (stereo not drawn)
i,1.68,CCn1cc(C(=O)NCc2ccco2)c(=O)c2cc(S(=O)(=O)N3CCc4ccccc4C3)ccc21
i,-2.26,O=C(Cn1nc(C(=O)O)c2ccccc2c1=O)Nc1ccc2c(c1)C(=O)c1ccccc1C2=O
i,3.11,O=C(CN1CCN(c2ccccc2)CC1)N/N=C/c1cccc(F)c1

# More entries
KCNQ2 block,KCNQ2 block baseline,molecule
i,-0.95,O=C(NCC1CCCO1)C(c1ccncc1)N(Cc1ccc(F)cc1)C(=O)CN1C(=O)c2ccccc2S1(=O)=O (stereo not drawn)
i,1.45,COC(=O)c1cc(=O)n(Cc2ccc3c(c2)OCO3)c(=Nc2ccccc2)s1
i,-0.25,COc1ccccc1C(CNc1ncnc2sc(C)c(C)c12)N(C)C (stereo not drawn)
i,0.24,Cc1cc(C)c(NC(=O)c2cc(S(=O)(=O)N3CCOCC3)ccc2F)c(C)c1
i,0.1,CC1Cc2ccccc2N1CC(=O)Nc1cccc(S(N)(=O)=O)c1 (stereo not drawn)
i,-1.38,Cn1nccc1C(=O)N1CCc2c([nH]c3ccccc23)C1c1ccc(F)cc1 (stereo not drawn)
i,-1.76,CS(=O)(=O)N1CCN(C(=O)c2cc(-c3cccnc3)nc3ccc(Br)cc23)CC1
i,-1.14,CC1CCCCN1C(=O)CSc1nnc(-c2cccnc2)n1C1CCCCC1 (stereo not drawn)
i,0.22,Cn1nc(C(=O)N2CCOCC2)c2ccccc2c1=O
i,-0.51,CCOC(=O)CSc1nnc(Cn2nnc(-c3ccccc3)n2)n1CC
i,-0.46,Cc1cccc(N2CCN(C(C)C(=O)N3CCc4ccccc43)CC2)c1C (stereo not drawn)
i,-1.74,Cc1ccc2oc(=O)c3cc(C(=O)N4CCN(C)CC4)sc3c2c1
i,0.61,Cc1nc2ncnn2c(N2CCC(C(=O)NC3CCCC3)CC2)c1Cc1ccccc1
i,1.74,CC(Sc1nnc(Cc2ccc3c(c2)OCO3)o1)C(N)=O (stereo not drawn)
i,0.01,CCCS(=O)(=O)c1nc(S(=O)(=O)c2ccc(C)cc2)c(N2CC(C)OC(C)C2)s1 (stereo not drawn)
i,0.87,CCc1ccc(NC(=O)C(C)Oc2nnc(-c3cccs3)c(-c3cccs3)n2)cc1 (stereo not drawn)
i,-0.97,COc1ccccc1OCC(=O)Nc1nnc(C2CCCC2)s1
i,-0.27,Cn1c(=O)c2c(ncn2CCC(=O)N/N=C/c2ccncc2)n(C)c1=O
i,0.44,COc1ccc(OC)c(Nc2nc3nonc3nc2N2CCCCC2)c1
i,1.65,COCCN(C(=O)C1CCC1)c1nnc(-c2cccnc2)s1
-5.62*,0.57*,N#C/C(=C\c1ccc([N+](=O)[O-])cc1)C(=O)NCCCn1ccnc1
i,-0.3,COc1ccc(C(C)(C)C)cc1NC(=O)c1ccoc1C
i,-0.04,CCOC(=O)c1cnc(-c2ccccc2)nc1C(F)(F)F
i,-0.02,COC(=O)Cc1nc(Nc2ccccc2)sc1C
i,-0.08,O=C(CSc1nnc(CNC(=O)c2ccccc2)o1)NCCc1ccccc1
i,0.52,COc1ccccc1/C=C/C(=O)N1CCc2cc(OC)c(OC)cc2C1C (stereo not drawn)
i,-0.22,COc1ccc(-c2nnc(SC)n2C)cc1
i,2.04,CCc1cc(C(=O)Cc2ccc(F)cc2)c(O)cc1O
